High-throughput results (PubChem BioAssay)
VDR inh: inhibitors of human vitamin D receptor; 400,000 tested, 0.93% active; AID 504847; VDR-SRC2-3 peptide fluorescence polarization, 2 h; Potency, µM, inactives show max response, negative = inhibition, hits mostly inhibitors; active = well fitted inhibition curve with a large enough effect; inconclusive = small, poorly fitted or top-dose-only effect, or another doubt; inactive = no such curve, though single readings can be large or run the other way; note: series mostly up to about 120 µM
Target sequence (P11473 whole entry, looked up): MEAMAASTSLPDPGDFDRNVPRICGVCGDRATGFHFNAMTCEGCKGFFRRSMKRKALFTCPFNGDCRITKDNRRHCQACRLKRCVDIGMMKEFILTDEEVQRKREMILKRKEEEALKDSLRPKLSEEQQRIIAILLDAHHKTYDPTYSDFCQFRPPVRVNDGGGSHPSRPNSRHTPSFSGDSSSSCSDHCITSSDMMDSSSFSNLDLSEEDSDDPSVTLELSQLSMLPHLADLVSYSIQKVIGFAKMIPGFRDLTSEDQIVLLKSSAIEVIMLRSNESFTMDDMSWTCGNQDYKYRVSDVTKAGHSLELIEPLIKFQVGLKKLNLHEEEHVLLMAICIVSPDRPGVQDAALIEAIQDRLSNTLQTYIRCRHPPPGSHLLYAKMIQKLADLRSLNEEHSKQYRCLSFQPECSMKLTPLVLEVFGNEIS
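Compounds are added to VDR with labelled SRC2-3 coactivator peptide and held 2 h at room temperature. Inhibition of the VDR–peptide interaction is then read as a change in fluorescence polarization.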
Active calls of the source: *; ? = inconclusive; & = joins results of further samples; [ ] = dose if it differs, or a comment. % is set by controls: 0 for no effect and ±100 for the full control effect; potency is the fitted concentration of half-maximal effect. An excerpt, so the mix of outcomes need not match the whole.

VDR inh,SMILES
-13%,COc1ccc(OCCn2c(CCNC(=O)C3CCCCC3)nc3ccccc32)cc1
13%,CCOC(=O)C1C(=O)OC(C)(C)C1C(C)C(=O)c1ccc(C)cc1C (stereo not drawn)
1%,Cc1cc(=O)oc2c(C)c(OCC(=O)N3CCN(c4ccc(F)cc4)CC3)ccc12
-2%,COc1ccc(S(=O)(=O)NCc2ccc3c(c2)OCO3)cc1C
?,COCCn1c(SCC(=O)Nc2ccc(OC)cc2OC)nc2ccccc2c1=O
-3%,COc1ccc(C(=O)N2CCC3(CC2)CN(CC(C)C)C3)cc1
18%,COc1ccccc1C1C(C(N)=O)=C(C)Nc2nc(-c3ccc(Cl)cc3)nn21 (stereo not drawn)
-15%,S=c1[nH]nc(-c2ccc(Br)cc2)n1-c1ccc2c(c1)OCCO2
0%,O=C(NCc1cccc(Br)c1)c1ccc(NC(=O)N2CCCCc3ccccc32)cc1
-3%,COc1ccc(C(=O)NC(=S)N2CCCc3ccccc32)cc1OC
-8%,CCCCS(=O)(=O)Nc1ccc(C(=O)NCC2CCCO2)cc1 (stereo not drawn)
2%,COCCn1c(SCC(=O)Nc2cc(C)on2)nc2ccccc2c1=O
3%,Cc1onc(-c2ccccc2Cl)c1C(=O)NCc1cccnc1
-11%,Cc1c(C2=CCN(S(=O)(=O)c3ccc(Cl)cc3)CC2)c2ccccc2n1C
-2%,COc1ccc(-c2nc(C)c(CCNC(=O)c3ccccc3Br)s2)cc1OC
-11%,O=C(O)c1ccc(CP(=O)(c2ccccc2)c2ccccc2)cc1
5%,Cc1ccc(-c2nc(C)c(CCNC(=O)C(=O)Nc3ccc(C)c(Cl)c3)s2)cc1
-12%,C=CCOC(=O)C1C(=O)CC(C)(O)C(C(=O)OCC=C)C1c1ccc(OC)cc1 (stereo not drawn)
9%,CC1CCN(C(=O)Cn2cc(SCC(=O)Nc3ccccc3C(F)(F)F)c3ccccc32)CC1
12%,Cc1cc(C)cc(NC(=O)CCn2cnc3ccccc3c2=O)c1
?,Cc1cccc(C(=O)Nc2nnc(-c3ccc(C(C)(C)C)cc3)s2)c1
-1%,COc1ccc(N(CC(O)Cn2cnc3ccccc32)S(=O)(=O)c2ccc(C)cc2)cc1 (stereo not drawn)
23%,CCOC(=O)Cc1c(C)nc2cc(C)nn2c1C
0%,COc1cccc(-c2ccc(C#N)c(SCC(=O)NCCc3cccc(Cl)c3)n2)c1
7%,Cc1cc(N2CCN(C(=O)c3ccco3)CC2)nc(-c2ccccc2)n1
11%,Cc1occc1-c1nnc(SCC(=O)N2CCCCC2)n1C
15%,Cc1cc(S(=O)(=O)NCc2cccnc2)ccc1-n1cnnn1
3%,O=C1Nc2c(c(=O)[nH]c(=O)n2-c2ccccc2)C1(Nc1ncccn1)C(F)(F)F (stereo not drawn)
0%,Cc1cc(=O)oc2c(C)c(OC(C)C(=O)NCc3ccccn3)ccc12 (stereo not drawn)
4%,CCCn1c(SCC(=O)Nc2nc3ccccc3s2)nc2c1c(=O)n(C)c(=O)n2C
3%,COc1ccc(N2CCN(C(=O)c3oc4ccccc4c3NC(=O)c3ccccc3OC)CC2)cc1
-12%,COc1ccc2cc(CCNC(=O)C3CC3)c(=O)[nH]c2c1
-7%,Cc1ccc(NC(=O)C(C)Sc2nnc(C)n2C2CC2)cc1S(=O)(=O)N1CCOCC1 (stereo not drawn)
92%[activator],Cc1ccc(NC(=S)NCC2CCN(C(C)c3ccccc3)C2)cc1 (stereo not drawn)
-1%,O=C(Nc1ccccc1Cl)c1cc(S(=O)(=O)N2CCC3(CC2)OCCO3)ccc1F
9%,CC(C)(C)C(=O)OC1=CN(Cc2ccccc2)S(=O)(=O)c2ccccc21
6%,O=C(Nc1ccc2nc(SCC(=O)N3CCc4ccccc43)sc2c1)c1ccccc1
9%,Cc1ccc(NC(=O)COC(=O)c2sccc2C)cc1S(=O)(=O)N1CCOCC1
-10%,CCCCCCCCCCOC(=O)Cn1c(COc2cccc(C)c2)[n+](C)c2ccccc21
4%,O=C(COC(=O)c1ccc(O)cc1)Nc1ccc(N2CCCCC2)cc1
9%,COc1ccc(C(c2nnnn2Cc2ccc(F)cc2)N2CCN(c3ccc(OC)cc3)CC2)cc1 (stereo not drawn)
-24%,CCOc1ccc(N/C=C\C(=O)c2ccc3c(c2)OCO3)cc1
25%,Cc1cccc(NC(=O)Nc2c(C)n(C)n(-c3ccccc3)c2=O)c1C
-9%,Cc1ccc(CN2CCC(CNC(=O)c3cnn(-c4ccc(C)cc4)c3C3CCN(C(=O)OC(C)(C)C)CC3)CC2)cc1
23%,COc1ccc(NC(=O)c2cccnc2Sc2ccccc2)c(OC)c1
-20%,O=C(CSc1nnc(NCc2ccccc2)s1)N1CCOCC1
8%,CCN(C(=O)COC(=O)c1cc(-c2ccccc2)nc2ccc(Br)cc12)C1CCS(=O)(=O)C1 (stereo not drawn)
16%,O=C(Nc1ccc(Cl)c(Cl)c1)N(Cc1cccnc1)Cc1ccco1
7%,CC(C)CN(C(=O)CSc1nnc2ccccn12)c1c(N)n(CC(C)C)c(=O)[nH]c1=O
79µM*,CC1CCCN(CCC(=O)c2ccc(Br)cc2)C1 (stereo not drawn)
-22%,COc1ccc(Cn2c3ccc(OC)cc3c3nc4ccccc4nc32)cc1
-27%,NC(=O)c1nsc(C(=O)N(Cc2ccc(F)cc2)C(C(=O)NCC2CCCO2)c2ccc(O)cc2)c1N (stereo not drawn)
-4%,Cn1c(SCc2cccc(C(F)(F)F)c2)nnc1-c1ccco1
-8%,COCCNC(=S)N1CCN(c2nc(-c3cccc(OC)c3)cs2)CC1
-5%,COc1ccccc1-c1nn2c(-c3cc(C)[nH]n3)nnc2s1
-10%,O=c1cc(CSc2ccccn2)c2ccccc2[nH]1
1%,COc1ccccc1NC(=O)CCNC(=O)Cn1ccc2ccccc2c1=O
6%,Cc1ccccc1-c1nn(-c2ccc(F)cc2F)cc1CNCC(C)O (stereo not drawn)
19%,O=C(CCC(=O)N1CCN(Cc2ccc(F)cc2)CC1)Nc1nnc(C(F)(F)F)s1
6%,O=C(CSc1nncn2c1cc1occc12)Nc1ccc(F)c(Cl)c1

Reprinted at random: 3 entries already listed
VDR inh,SMILES
-10%,O=c1cc(CSc2ccccn2)c2ccccc2[nH]1
-9%,Cc1ccc(CN2CCC(CNC(=O)c3cnn(-c4ccc(C)cc4)c3C3CCN(C(=O)OC(C)(C)C)CC3)CC2)cc1
-22%,COc1ccc(Cn2c3ccc(OC)cc3c3nc4ccccc4nc32)cc1

VDR inh, entries above that show a hit
VDR inh,SMILES
79µM*,CC1CCCN(CCC(=O)c2ccc(Br)cc2)C1 (stereo not drawn)

Remaining list, next part:
VDR inh,SMILES
-7%,CC1(C(=O)N2CCC(CO)(Cc3cccc(C(F)(F)F)c3)CC2)CC1
5%,Cc1cc(N(CN2CCCC2=O)C(=O)c2ccccc2)no1
-13%,COC1(C)CC2C(CC1OC(=O)c1cc([N+](=O)[O-])cc([N+](=O)[O-])c1)C2(C)C (stereo not drawn)
0%,FC(F)(F)c1cnc(Oc2ccccc2-c2nnco2)c(Cl)c1
-19%,COc1cc([N+](=O)[O-])ccc1N=Nc1c(N)[nH]n(-c2ccccc2)c1=O
?,COC(=O)c1ccc(NC(=O)CSc2nc3c(c(=O)n(C)c(=O)n3C)n2Cc2ccccc2)cc1
-3%,CCCS(=O)(=O)N1CCC(C(=O)NCCC(C)C)CC1
-10%,COc1ccccc1CNC(=O)CN1C(=O)NC2(CCCc3sccc32)C1=O (stereo not drawn)
13%,CCN(Cc1ccccc1)S(=O)(=O)c1ccc(C(=O)N(CCCN(C)C)c2nc3cc(C)cc(C)c3s2)cc1
-20%,CCC/C(O)=C1\C(=O)CC(c2ccccc2)CC1=NC(C)C(=O)O (stereo not drawn)
2%,N#C/C(=C(O)\C=C\c1ccccc1)c1nc2ccccc2[nH]1
-9%,C[C@H]1CN([C@@H](C)CO)C(=O)c2cc(NC(=O)C3CCCCC3)ccc2O[C@H]1CN(C)C(=O)Nc1ccc2c(c1)OCO2
-4%,CCOC(=O)Cc1csc(NC(=O)CCc2ccccc2)n1
2%,CC1(C)COCN1C(=O)c1ccc(C#N)cc1
-10%,CCCCc1nnc(SC(C)C(=O)Nc2nccs2)n1C (stereo not drawn)
-3%,Cc1ccc(C(=O)NCCN2CCOCC2)c(Cl)c1
-2%,COc1cc(/C=C2/NC(=O)N(CC(=O)Nc3ccc(C)cc3)C2=O)ccc1Oc1ccc([N+](=O)[O-])cn1
6%,Cc1cc2nc(=O)c(/C=C3\C=Nc4ccccc43)c(N)n2o1
2%,C/C(CC(=O)Nc1ccc(N(C)C)cc1)=N\NC(=O)c1ccc(C(C)(C)C)cc1
2%,COc1ccc(-c2c(O)c3c(OC)c4c(cc3oc2=O)OC(C)(C)CC4)cc1

Ordered by the number under VDR inh (smallest number first): 6 from the list above.
VDR inh,SMILES
-19%,COc1cc([N+](=O)[O-])ccc1N=Nc1c(N)[nH]n(-c2ccccc2)c1=O
-13%,COC1(C)CC2C(CC1OC(=O)c1cc([N+](=O)[O-])cc([N+](=O)[O-])c1)C2(C)C (stereo not drawn)
-3%,CCCS(=O)(=O)N1CCC(C(=O)NCCC(C)C)CC1
0%,FC(F)(F)c1cnc(Oc2ccccc2-c2nnco2)c(Cl)c1
2%,CC1(C)COCN1C(=O)c1ccc(C#N)cc1
5%,Cc1cc(N(CN2CCCC2=O)C(=O)c2ccccc2)no1

(list continues)
VDR inh,SMILES
-7%,O=C(NCc1cccnc1)NC1(c2ccccc2)CC1
-2%,COc1ccccc1N1CCN(C2CC(=O)N(c3ccc(Cl)cc3)C2=O)CC1 (stereo not drawn)
14%,Cc1cccc2sc(NS(C)(=O)=O)nc12
-8%,CCn1nc(C)c(Br)c1-c1nc(-c2cccc(C)c2)no1
-15%,CC(C)c1ccc(OCC(=O)NC2CCCC2)cc1
-11%,CC(C)N1CCc2c(sc(NC(=O)c3nc4ccccc4s3)c2C(N)=O)C1
?,COc1cc(/C=C2/C(=O)N(c3ccc(Br)cc3)N=C2C)cc(OC)c1OC
-23%,COc1cc(C(=O)N/N=C(\C)Cn2nc([N+](=O)[O-])cc2C)ccc1O
-1%,O=C(Nc1nc(-c2ccccc2)ns1)c1ccc(Cl)cc1
6%,CN(C)S(=O)(=O)N(CC(=O)Nc1cccc(F)c1)c1ccccc1
18%,Cc1[nH]n(-c2ccc(C(=O)O)cc2)c(=O)c1CCO
-11%,O=C(NCC(c1cccs1)N1CCOCC1)c1cc(-c2ccc(F)cc2)nc2ccccc12 (stereo not drawn)
-23%,O=C(Nc1cc(S(=O)(=O)N2CCOCC2)ccc1N1CCOCC1)c1ccc(Cl)nc1
-3%,COC(=O)Nc1cc(C)nc2ccccc12
-12%,NC(=O)N/N=C/c1coc2ccc(O)cc2c1=O
-10%,O=C(Nc1ncc([N+](=O)[O-])s1)c1ccco1
-12%,COC(=O)c1cccc(NC(=O)c2onc3c2CCCC3)c1
18%,Clc1ccc(-c2nnc(-c3ccc(Br)cc3)c(N3CCSCC3)n2)cc1
-24%,COC(=O)c1ccc(NC(C(=O)OC)C(C)C)c([N+](=O)[O-])c1 (stereo not drawn)
-8%,N#Cc1cc(S(=O)(=O)c2ccc(Cl)cc2)c(N)[nH]c1=O
0%,C=CCSc1nnc(-c2ccc([N+](=O)[O-])cc2)o1
11%,C/C(=N\NC(=O)c1ccc(CSc2nncn2C)cc1)c1cccs1
17%,Cc1cccc(C(=O)Oc2ccc(/C=N/NC(=O)c3ccc(O)cc3)cc2)c1
8%,CC(C)(C)n1nnnc1C(c1cc2cc3c(cc2[nH]c1=O)OCCO3)N1CCSCC1 (stereo not drawn)
-9%,COc1ccc(CCNC(=O)c2ccccc2SC)cc1
-8%,CCOC(=O)C1=C(COC(=O)CCc2ccc(CC)cc2)NC(=O)NC1C (stereo not drawn)
8%&1%,Cc1ccc(NC(=O)CCNS(=O)(=O)c2ccc(Br)s2)cc1
3%,CSc1ccccc1NC(=O)CN(c1cccc(C)c1)S(C)(=O)=O
-4%,CCCCn1c(N)c(N(CC(C)C)C(=O)COC(=O)Cc2c(C)nc3ccccc3c2C)c(=O)[nH]c1=O
-2%,Cc1ccc(C(CC(=O)NCc2ccco2)c2ccccc2)c(O)c1 (stereo not drawn)
12%,CCCCn1c(SCC(=O)Nc2cc(C)on2)nnc1-c1ccncc1
15%,Cc1cccc2cc(-c3nc4c(C)cccn4c3NCc3ccco3)c(=O)[nH]c12
-7%,Cc1nc2c(C#N)cnn2c2c1CCNN2C
-8%,CCOC(=O)c1ccccc1NC(=O)c1sc2nc3n(c(=O)c2c1C)CCCCC3
5%,Cn1c(SCC(=O)c2cccs2)nnc1-c1ccco1
-15%,CCCn1c(-c2cccs2)nc2c1c(=O)[nH]c(=O)n2Cc1ccccc1
-5%,Cc1cc2c(c(=O)n1Cc1ccco1)C(c1cccnc1)C(C#N)=C(N)O2 (stereo not drawn)
-8%,CCC(OC(=O)c1ccco1)C(=O)NCc1ccco1 (stereo not drawn)
-3%,O=c1[nH]ncc(N/N=C/c2ccccc2)c1Cl
-10%,COc1ccc(Cc2noc(CN3CCN(c4ccc(Cl)cn4)CC3)n2)cc1OC

Some of the entries so far, with tabs.
mol	VDR inh
COc1ccc(CCNC(=O)c2ccccc2SC)cc1	-9%
CCOC(=O)C1=C(COC(=O)CCc2ccc(CC)cc2)NC(=O)NC1C (stereo not drawn)	-8%

Additional compounds follow.
VDR inh,SMILES
7%,Cc1c(C(=O)NC(=S)Nc2cccnc2)cccc1[N+](=O)[O-]
-10%,OCC[C@H]1NCc2cc(CO)cc(-c3ccccc3)c21
-1%,Cn1c(=O)c2c(nc(NCCNC(=O)c3ccco3)n2Cc2ccccc2Cl)n(C)c1=O
2%,CCOc1cccc(/C=N/Nc2ccc(S(=O)(=O)N(CC)CC)cn2)c1O
-9%,CN(C)CCOCCP(=O)(c1ccccc1)c1ccccc1
-5%,Cc1ccc(CNC(=O)c2sc3nc4n(c(=O)c3c2C)CCCCC4)cc1
